PABP polyA inh = PABP-poly(A) binding inhibition. P11940. PABP-poly(A) RNA binding, fluorescence polarization. inhibition, % at 35 µM. hit rate 1% among 290,000;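 active = 50% or more with normal probe brightness, or confirmed in later tests; inconclusive = above 50% with abnormal brightness, or retests that disagree; inactive = below 50% or failed in later tests; about a fifth of its hits are not listed in these tables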;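 note: calls also rest on retests at 20 µM and on dose response follow-up; controls were probe without protein and protein plus probe with vehicle; some compounds called inactive have numbers as strong as hits; many hits fall short of the cut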
Target sequence (P11940 whole entry, looked up): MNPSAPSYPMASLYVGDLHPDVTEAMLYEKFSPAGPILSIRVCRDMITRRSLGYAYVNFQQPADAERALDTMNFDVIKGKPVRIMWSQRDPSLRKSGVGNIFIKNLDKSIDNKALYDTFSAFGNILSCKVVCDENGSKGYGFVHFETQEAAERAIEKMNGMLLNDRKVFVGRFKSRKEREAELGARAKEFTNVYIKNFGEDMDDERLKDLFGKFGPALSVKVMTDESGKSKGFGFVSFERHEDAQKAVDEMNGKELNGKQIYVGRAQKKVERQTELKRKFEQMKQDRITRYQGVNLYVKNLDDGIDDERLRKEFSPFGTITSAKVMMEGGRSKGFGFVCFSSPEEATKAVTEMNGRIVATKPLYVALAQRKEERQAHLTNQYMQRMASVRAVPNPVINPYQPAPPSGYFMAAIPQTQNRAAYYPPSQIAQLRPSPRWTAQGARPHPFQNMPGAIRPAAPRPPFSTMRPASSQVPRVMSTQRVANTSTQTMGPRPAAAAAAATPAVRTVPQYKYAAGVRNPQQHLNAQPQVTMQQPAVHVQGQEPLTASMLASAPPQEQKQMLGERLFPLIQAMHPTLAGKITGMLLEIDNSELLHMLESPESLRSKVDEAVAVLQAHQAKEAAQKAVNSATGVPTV
CSC inhib = cancer stem cell inhibition; cancer stem cell-like cells viability, luminescence; inhibition, % at 7.5 µM; hit rate 1.1% among 300,000; AID 2717;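 active = mean at 75% or more and at least half the replicates too; inconclusive = mean and replicates disagree; tested in HMLE shEcad cells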;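 note: 0% = median of negative and 100% = median of positive control wells; the first replicate is given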
UUG fidelity = modulators of start codon recognition fidelity in yeast. activity score, % at 18.7 µM. hit rate 0.13% among 350,000. S. cerevisiae UUG-firefly luciferase reporter, luminescence/redox ratio. AID 602363;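 active = replicate mean at a twofold rise or more, about +100% in these data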;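 note: firefly luciferase made from a UUG start codon reports start codon fidelity; reporter light over untreated wells divided by growth signal over untreated wells; some hits fall short of that in this replicate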
MT1-MMP act inh = blocks activation of human MT1-MMP | P50281 | HT1080 RFP-PRO-GFP cells, GFP/RFP ratio fluorescence, overnight; percent of plate control window, DMSO zero | GFP/RFP ratio change, % at 20 µM | hit rate 0.061% among 360,000 | AID 651647;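 active = GFP/RFP ratio change of at least 30% with cell ATP level not reduced by more than half and red fluorescence within 50% of control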; note: strong numbers were not always called active
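system = RFP-PRO-GFP reporter HT1080 cells | dosing = 20 µM single dose, 1% DMSO | timing = overnight cell settling, then overnight compound exposure, 37 °C, 5% CO2 | read-out basis = GFP/RFP fluorescence ratio | controls = DMSO and RFP-L50D-GFP cell wells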
Rce1 inhib = blocks yeast Ras-converting enzyme; yeast membranes, quenched prenylated peptide cleavage fluorescence; calls only; hit rate 0.27% among 290,000; AID 2563;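 active = fall in fluorescence gain of 50% or more versus controls, with final raw signal at or below 3038400; inconclusive = same 50% fall but final raw signal above 3038400; inactive = fall in fluorescence gain under 50%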;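 note: plate controls were neutral control wells for no effect and wells lacking membranes for full effect; tested at 10 µM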
Target sequence (Q03530 whole entry, looked up): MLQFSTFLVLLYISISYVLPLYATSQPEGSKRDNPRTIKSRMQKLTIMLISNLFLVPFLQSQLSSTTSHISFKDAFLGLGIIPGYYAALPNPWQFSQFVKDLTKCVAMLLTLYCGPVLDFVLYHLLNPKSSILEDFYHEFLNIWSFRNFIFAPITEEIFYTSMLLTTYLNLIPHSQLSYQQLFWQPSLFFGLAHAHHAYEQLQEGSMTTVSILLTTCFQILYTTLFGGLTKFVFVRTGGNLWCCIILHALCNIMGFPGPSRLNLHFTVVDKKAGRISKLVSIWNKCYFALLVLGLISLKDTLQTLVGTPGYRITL
HIV Env fusion = blocks HIV Env-driven cell-cell fusion. hit rate 1.1% among 360,000. AID 651610. inhibition, % at 12.3 µM. HeLa-JRFL Env/CEM21 cell fusion, luciferase;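 active = mean replicate inhibition score of at least 50 and every replicate individually at or above 50; inconclusive = only one of the two criteria met; inactive = mean below 50 and not all replicates reaching 50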;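 note: 0% = plate neutral controls and 100% = maraviroc near 300 nM; one replicate is shown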
eIF4H inh = inhibitors of RNA binding by human eIF4H; hit rate 0.94% among 290,000; eIF4H fluorescence polarization binding assay; inhibition, % at 35 µM; AID 2012; Q15056;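 active = 50% or more with normal probe brightness, or confirmed in later tests; inconclusive = above 50% with abnormal brightness, or retests that disagree; inactive = below 50% or failed in later tests; about a fifth of its hits are not listed in these tables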;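 note: calls also rest on retests at 20 µM and on dose response follow-up; 0% = protein and probe with vehicle and 100% = probe without protein; strong numbers were not always called active; many hits fall short of the cut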
MT1-MMP act inh RFP = further read-out of MT1-MMP act inh, marked with its call; RFP signal change, %; measured here: RFP expression control read;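 0 = vehicle wells; hits needed this value within 50% of zero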
Numbers without * were called inactive; i = inactive; ? = inconclusive; · = no result given; & = joins results of further samples.

SMILES	PABP polyA inh	CSC inhib	UUG fidelity	MT1-MMP act inh	MT1-MMP act inh RFP	Rce1 inhib	HIV Env fusion	eIF4H inh
O=C(NN(CC(O)COc1ccccc1)CC(O)COc1ccccc1)c1ccccc1 (configuration not stated)	-8	-6	1	0	2	i	-160	-8
COc1ccc(CCN2CC(C(=O)NCc3nc(C)c(C)s3)CCC2=O)cc1 (configuration not stated)	1	-1	-29	-3	2	i	-18	4
N#CCC(=O)N1CCN(C=O)CC1	-1	4	·	·	·	·	-8	4
CCCCC(=O)Nc1cccc(NC(=O)CC)c1	4	-6	-4	-2	-3	·	-46	-1
Cc1ccc(NC(=O)CSc2ncnc3ccccc23)cc1S(=O)(=O)N1CCCCC1	1	·	·	-9	-28	i	37	-13
COc1ccc(/C=C/C(=O)NNc2c(F)c(F)cc(F)c2F)cc1OC	-12	-6	·	12	-4	i	·	-15
O=C(O)c1ccccc1-c1ccccc1C(=O)NCc1ccccc1F	-2	-4	2	10	1	i	-15	-3
CCCCN(C(=O)c1cc(CC)c(C)s1)c1c(N)n(CC(C)C)c(=O)[nH]c1=O	11	-14	-14	-1	1	i	8	4
COc1cccc(C(c2sc3nc(C)nn3c2O)N2CCc3ccccc3C2)c1 (configuration not stated)	1	-4	-16	0	4	i	-1	-13
COC(=O)c1cc(S(=O)(=O)NCc2cccc(OC)c2)cn1C	-4	-1	-17	5	4	i	-12	-4
O=c1n(-c2ccccc2)c(=O)n2n1CCCC2	-5	·	-10	2	0	i	·	-1
Nc1ccn([C@@H]2O[C@H](C(=O)Nc3ccc(Oc4ccccc4)nc3)[C@@H](O)[C@H]2O)c(=O)n1	·	·	-6	1	-1	·	-19	·
c1ccc2c(CSc3ncnc4nc[nH]c34)cccc2c1	-15	-5	·	-7	-14	i	21	-6
N/N=C1\CCCc2c1[nH]c1ccc([N+](=O)[O-])cc21	5	-6	-16	4	0	i	42	1
O=C(CCNC(=O)c1ccccc1)NNC(=O)c1ccccc1Br	·	-14	3	1	3	·	·	·
CCCCN1C(=O)C(=O)NC[C@@H]1C(C)CC (some centres not stated)	3	-5	-4	-2	1	i	-67	-3
Fc1ccc2nc(C3CCCCN3Cc3nc(CC4CC4)no3)[nH]c2c1 (configuration not stated)	-7	·	·	·	·	i	1	0
CCCOc1cc2c(C#N)c(N3CCCC3)nc(N)c2c(N)n1	·	-13	-1	-6	10	i	-24	·
c1ccc(C(c2ccccc2)c2noc(CN3CCN(CC4CC4)CC3)n2)cc1	-6	26	-16	0	4	i	7	0
c1ccc(CCNc2cnccn2)cc1	6	0	-10	1	3	i	-5	-2
O=C(CNC(=O)c1ccc(Cl)cc1)OCCCOC(=O)CNC(=O)c1ccc(Cl)cc1	-1	-1	-6	1	-1	i	-5	-5
CC(=O)Nc1ccc(S(=O)(=O)NCCc2c[nH]c3ccc(C)cc23)cc1	6	·	-5	1	-1	i	3	-4
COc1cc2c(cc1OC)CN(C(=O)CCOc1ccccc1)CC2	-7	·	14	-1	0	i	12	-4
CCOc1ccc(OCc2ccc(C(=O)NCC3CCCO3)o2)cc1 (configuration not stated)	-5	-6	5	-2	-1	i	·	-2
CCN(CC)C(=O)CSc1nnc(-c2cc3ccccc3cc2O)n1CC	-1	-9	-6	4	-8	i	13	0
CC(=O)Nc1cccc(-c2cc(N3CCN(CCO)CC3)n3nccc3n2)c1	·	·	-19	6	3	·	0	·
Cc1ccc(S(=O)(=O)NC2CC(=O)N(c3ccc4c(c3)OCCO4)C2)cc1 (configuration not stated)	·	·	7	4	0	i	·	·
COC(=O)c1ccc(CSc2nc3ccccc3c(=O)n2-c2ccccc2)o1	-8	4	·	-2	-3	i	·	-7
Cc1cccc(/C=N/NC(=O)c2cc(-c3cccnc3)nc3ccccc23)c1	-13	2	-7	-3	-3	i	-1	5
O=C(CN1CCCCC1)N/N=C/c1cc2ccccc2nc1Cl	0	-7	-8	1	0	i	7	5
COc1ccc(CCNC(=O)CSc2nnc3ccc(-c4cccnc4)nn23)cc1OC	11	-7	-12	-3	-2	i	-72	-4
CCc1ccc(NC(=O)CN2CCc3ccccc3C2)cc1	3	0	-11	5	2	i	-5	-1
C[C@H]1CN([C@@H](C)CO)C(=O)CCCn2nncc2CO[C@@H]1CN(C)S(=O)(=O)c1cccc(C#N)c1	·	·	-10&-1	0	7	·	7	·
NS(=O)(=O)c1cc(C(=O)NNC(=O)c2ccc3c(c2)OCO3)ccc1Cl	·	-5	-2	2	4	·	2	·
CCOC(=O)[C@@H]1[C@H]2COc3ccc(Br)cc3[C@@H]2N2C(=O)N(c3ccc(C)cc3)C(=O)[C@]12C	-4	5	14	2	-5	i	-6	-8
COc1ccccc1N(Cc1ccccc1)S(=O)(=O)c1cccc(C(=O)Nc2ccc(C(C)=O)cc2)c1	1	·	-6	1	-3	i	22	-9
CCC(=O)NC(=S)Nc1ccc(NC(=O)COc2ccc(Cl)cc2Cl)cc1	-9	-3	-12	-11	-6	i	·	-10
C=CCC1(C#N)C(SC)=NC2=C(C(=O)CC(C)(C)C2)C1c1ccc(Br)cc1 (configuration not stated)	2	19	·	-2	-1	i	-2	-2
Cc1noc(C)c1COC(=O)C1CCN(S(=O)(=O)c2c(Cl)cccc2Cl)CC1	·	-10	10	1	6	i	·	·
COc1ccc(Br)cc1/C=N/N1C(=O)CSC1=S	-10	-14	-10	-3	4	i	0	-8
CCCCCCCCCCOC(=O)C[N+](C)(C)CC1CCCCC1O (configuration not stated)	-8	18	·	-3	-6	i	32	-8
NC(=O)C1CCN(c2ccc(S(=O)(=O)N3CCCCC3)cc2[N+](=O)[O-])CC1	·	-3	·	6	-7	·	?	·
CCCc1nc(SCC(=O)Nc2ccccc2)c2c(=O)n(C)c(=O)n(C)c2n1	-6	-2	-13	-6	-3	i	3	-10
COc1ccc(CNC(=O)C(C)OC(=O)CO/N=C(\C)c2ccc3c(c2)OCO3)cc1 (configuration not stated)	·	-2	-8	3	2	i	-1	·
Cc1ccccc1C(=O)Oc1ccc(-c2csnn2)cc1	-3	-7	1	-2	-1	i	-9	-4
COc1ccc(CN(C)C(=O)c2ccc(NC(=O)CC3SC(N4CCCCC4)=NC3=O)cc2)c(OC)c1 (configuration not stated)	·	·	-2	1	-5	·	-5	·
Cc1ccc(Cl)cc1N1CCN(CC(O)COC(C)C)CC1 (configuration not stated)	-1	8	·	1	-1	i	30	5
COc1ccc(CC2(CO)CCN(Cc3ccc(NC(C)=O)cc3)CC2)cc1	-2	-1	·	-1	7	i	0	0
CC1(C(=O)O)CCC(C(=O)Nc2ccc(S(N)(=O)=O)cc2)C1(C)C (configuration not stated)	-6	-1	-7	1	2	i	·	-8
COC(=O)CSc1nc(C2CC2)cc(C(F)(F)F)c1C#N	3	-7	-13	-2	0	i	11	-6
Cc1cc(N/N=C/c2cccc(Br)c2)nc2ccccc12	5	13	-8	1	0	i	-76	5
COc1ccc(-c2nc(N)n[nH]2)cc1OC	3	-2	-33	3	2	i	·	-4
COC(=O)c1nc(NC(=O)c2ccc(Br)cc2)n[nH]1	-2	-5	·	5	9	i	·	0
Cc1ccc(S(=O)(=O)N2CCOCC2)cc1C(=O)NCc1cccs1	-11	1	·	-3	1	i	6	-1
Cc1ccc(C(=O)N2CCN(Cc3ccccc3)CC2)o1	12	-14	-16	2	2	i	-1	6
COc1ccccc1N1CCN(C(=O)c2ccc(C(C)(C)C)cc2)CC1	-8	2	0	-7	0	·	·	-7
O=C(c1ccc2c(c1)C(=O)N(CCCO)C2=O)c1ccc2c(c1)C(=O)N(CCCO)C2=O	0	-13	-9	1	3	·	·	-18
CCCNC(=S)NNC(=O)c1cc(-c2cccnc2)nc2ccccc12	6	-10	-12	·	·	i	-213	6
CCCC(C)NC(=O)COc1ccc(S(=O)(=O)c2ccc(OCC(=O)NC(C)CCC)cc2)cc1 (configuration not stated)	4	-8	-4	-3	-1	i	10	8
COc1ccc(C2/C=C\CN(S(=O)(=O)/C=C/c3ccccc3)[C@H](Cc3ccccc3)C(=O)N2Cc2ccc(F)cc2)cc1 (some centres not stated)	-8	24	·	·	·	i	·	-13
Carrying on.
SMILES	PABP polyA inh	CSC inhib	UUG fidelity	MT1-MMP act inh	MT1-MMP act inh RFP	Rce1 inhib	HIV Env fusion	eIF4H inh
O=C(N1CCCCC1)C12CC3CC(C1)CC(C(=O)N1CCCCC1)(C3)C2	-5	-1	-1	0	2	i	·	2
CCN(CC)CCOC(=O)c1ccc([N+](=O)[O-])cc1	3	-1	·	2	8	i	5	6
CC(C)CC(=O)N(c1nnc(-c2cccnc2)s1)C1CCCC1	3	-3	-6	-6	-3	i	4	-4
CCCCC(=O)NC(Nc1nc(C2CC2)cs1)(C(=O)OCC)C(F)(F)F (configuration not stated)	-6	8	-7	-6	-7	i	-83	-11
CCCC1OC(c2ccco2)OCC1CC (configuration not stated)	·	·	-7	2	2	·	1	·
CC(C)(C)N1CC(C(=O)O)CC1=O (configuration not stated)	1	-3	-23	3	6	i	-5	-1
O=C(NCC1CCCO1)c1ccc2c(=O)n(Cc3ccco3)c(SCC(=O)N3CCCC3)nc2c1 (configuration not stated)	7	-14	·	0	2	i	-44	-6
COc1ccccc1N1CCN(C(c2cccs2)C(C)NC(=O)c2cccnc2)CC1 (configuration not stated)	2	-5	-10	8	1	i	-9	2
COc1ccc(CC(=O)NNC(=O)c2cc(Cl)ccc2OC)cc1	·	·	-18	3	-1	·	-36	·

Reprinted from the entries so far, ten compounds:
SMILES	PABP polyA inh	CSC inhib	UUG fidelity	MT1-MMP act inh	MT1-MMP act inh RFP	Rce1 inhib	HIV Env fusion	eIF4H inh
COc1ccc(C2/C=C\CN(S(=O)(=O)/C=C/c3ccccc3)[C@H](Cc3ccccc3)C(=O)N2Cc2ccc(F)cc2)cc1 (some centres not stated)	-8	24	·	·	·	i	·	-13
O=C(N1CCCCC1)C12CC3CC(C1)CC(C(=O)N1CCCCC1)(C3)C2	-5	-1	-1	0	2	i	·	2
CCN(CC)CCOC(=O)c1ccc([N+](=O)[O-])cc1	3	-1	·	2	8	i	5	6
CC(C)CC(=O)N(c1nnc(-c2cccnc2)s1)C1CCCC1	3	-3	-6	-6	-3	i	4	-4
CCCCC(=O)NC(Nc1nc(C2CC2)cs1)(C(=O)OCC)C(F)(F)F (configuration not stated)	-6	8	-7	-6	-7	i	-83	-11
CCCC1OC(c2ccco2)OCC1CC (configuration not stated)	·	·	-7	2	2	·	1	·
CC(C)(C)N1CC(C(=O)O)CC1=O (configuration not stated)	1	-3	-23	3	6	i	-5	-1
O=C(NCC1CCCO1)c1ccc2c(=O)n(Cc3ccco3)c(SCC(=O)N3CCCC3)nc2c1 (configuration not stated)	7	-14	·	0	2	i	-44	-6
COc1ccccc1N1CCN(C(c2cccs2)C(C)NC(=O)c2cccnc2)CC1 (configuration not stated)	2	-5	-10	8	1	i	-9	2
COc1ccc(CC(=O)NNC(=O)c2cc(Cl)ccc2OC)cc1	·	·	-18	3	-1	·	-36	·

High-throughput results (PubChem BioAssay)

The list is partial. The share of hits here may be higher or lower than overall.
